Screening data deposited in PubChem BioAssay by several laboratories.
MLL AF4-AF9 inh: inhibitors of human MLL-AF4/AF9 interaction; 350,000 compounds, 0.47% hits; P42568; AlphaScreen, biotin-AF4 peptide binding to FLAG-AF9; AID 651704; inhibition, % at 10 µM;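 active = every replicate reaching a set inhibition limit, whatever the replicate mean, cut at about 25% in these data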;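 also: 0% = plate neutral control median and 100% = total signal loss; the record names both 10 and 1 µM as test concentration; the first replicate is given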
Target sequence (P42568 whole entry, looked up): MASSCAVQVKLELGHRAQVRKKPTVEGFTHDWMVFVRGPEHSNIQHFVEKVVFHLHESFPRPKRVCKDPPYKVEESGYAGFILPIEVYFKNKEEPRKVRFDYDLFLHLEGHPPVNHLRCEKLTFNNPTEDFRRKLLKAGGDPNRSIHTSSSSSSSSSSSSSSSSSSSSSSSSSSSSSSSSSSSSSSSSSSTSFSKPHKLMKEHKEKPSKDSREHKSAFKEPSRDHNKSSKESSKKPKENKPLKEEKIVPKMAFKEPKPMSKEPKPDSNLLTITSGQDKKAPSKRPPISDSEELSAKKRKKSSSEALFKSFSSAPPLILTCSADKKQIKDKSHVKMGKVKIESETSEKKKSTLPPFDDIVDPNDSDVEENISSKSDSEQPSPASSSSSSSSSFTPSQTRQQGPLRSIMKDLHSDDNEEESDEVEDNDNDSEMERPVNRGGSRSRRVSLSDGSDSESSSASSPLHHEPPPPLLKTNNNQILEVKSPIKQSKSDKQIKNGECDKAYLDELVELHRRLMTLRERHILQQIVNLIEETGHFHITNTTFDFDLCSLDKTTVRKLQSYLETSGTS
UCH37 inh: inhibitors of human deubiquitinating enzyme UCH37. 330,000 compounds, 0.33% hits. purified proteasome/UCH37, Ub-AMC cleavage fluorescence. AID 588478. inhibition, % (concentration not given with the values);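 active = mean of two replicates above 20%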;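 also: 0% = compound-free wells with enzyme and 100% = wells lacking proteasome; stock transfer was 100 nL into about 20 µL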
Target sequence (Q9Y5K5 whole entry, looked up): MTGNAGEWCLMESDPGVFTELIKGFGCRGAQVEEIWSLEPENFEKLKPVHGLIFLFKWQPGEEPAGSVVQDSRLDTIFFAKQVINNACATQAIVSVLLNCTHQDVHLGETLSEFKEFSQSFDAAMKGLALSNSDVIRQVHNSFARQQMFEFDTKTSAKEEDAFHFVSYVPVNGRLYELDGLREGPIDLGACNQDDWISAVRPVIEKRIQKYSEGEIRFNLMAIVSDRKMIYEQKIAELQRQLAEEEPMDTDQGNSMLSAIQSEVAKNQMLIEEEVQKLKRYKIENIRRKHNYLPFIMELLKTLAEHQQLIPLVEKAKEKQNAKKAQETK
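Test system – human UCH37 enzyme supplied as purified proteasome complex · Incubation – 30 min preincubation with enzyme, 25 min cleavage at room temperature · Detection – AMC fluorescence from Ub-AMC cleavage, excitation 355 nm, emission 460 nm · Benchmarks – no-proteasome wells (full inhibition) and compound-free wells (no inhibition)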
Beta apoptosis: blocks beta cell apoptosis | 300,000 compounds, 0.8% hits | INS-1E cytokine-induced death, ATP luminescence, 48 h; percent of positive-control rescue, neutral wells zero | protection from apoptosis, % (no concentration beside the values);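 active = all replicates at 75% or more, or half of them and the mean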;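 also: 0% = cytokine-treated negative control wells and 100% = positive control rescue; higher means more ATP so stronger rescue from cytokine killing; wells of about 40 µL received 100 nL stock; the first replicate is given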
FGF22 binding: shifts melting point of recombinant human FGF22; 340,000 compounds, 1.5% hits; recombinant FGF22 thermal shift, SYPRO orange fluorescence; percent of sucrose octasulfate shift, DMSO zero; calls only at 9.99 µM; Q9HCT0;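 active = melting point raised past a set limit in the mean and every replicate; three in four hits are not shown here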
Target sequence (Q9HCT0 whole entry, looked up): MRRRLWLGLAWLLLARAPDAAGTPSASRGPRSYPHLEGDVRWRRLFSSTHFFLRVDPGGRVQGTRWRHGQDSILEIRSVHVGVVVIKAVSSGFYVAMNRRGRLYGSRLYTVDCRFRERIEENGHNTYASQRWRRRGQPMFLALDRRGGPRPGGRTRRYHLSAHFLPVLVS
A1 inh: inhibitors of the anti-apoptotic protein A1, read as caspase activation; MEF A1-2A-BIM cells, Caspase-Glo 3/7 luminescence, 3 h; percent of clofoctol response, vehicle zero; caspase activation, % (no concentration beside the values); 330,000 compounds, 0.066% hits;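 active = over half of replicate activation scores above 10%, or exactly half above 10 with the replicate mean above 10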;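 also: wells of about 30 µL received 50 nL stock; many hits fall short of the cut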
T cruzi inh: T. cruzi replication inhibition. T. cruzi beta-gal in NIH3T3, luminescence, 90 h. inhibition, % (concentration not given with the values). 300,000 compounds, 1.4% hits;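 active = mean inhibition across valid replicates above about 55%, limit read from the data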;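 also: signal also drops with host cell toxicity which is not excluded here; 0% = plate median of DMSO wells and 100% = zero luminescence signal; higher percent means less beta-gal luminescence so fewer parasites; stock transfer was 50 nL into about 50 µL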
E coli growth: E. coli growth inhibition. Escherichia coli growth, OD600, 23 h; active compounds read low. OD600 absorbance (no concentration beside the values). 330,000 compounds, 0.21% hits. AID 1053175;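 active = OD600 absorbance below the run mean of sample wells minus 3.6 SD, in any replicate, cut at about 0.56 in these data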;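 also: stock transfer was 300 nL into about 60 µL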
Ecoli rRNA inh: inhibits bacterial ribosomal RNA function over humanized ribosomes; AID 720706; GFP signal change (wild-type ribosome), % (concentration not given with the values); 350,000 compounds, 1.6% hits; E. coli WT GFP vs humanized-ribosome RFP mutants, fluorescence, 24 h; active compounds read low; DMSO median 0, no signal -100;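 active = significant combined selectivity score with lowered wild-type GFP, culture density cut under 30%, mutant RFP and density less affected; inactive = any of these conditions unmet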; also: one replicate is shown; some compounds called inactive have numbers as strong as hits
Ecoli rRNA inh OD600: second read-out of Ecoli rRNA inh, no call of its own (marks repeat the call); OD600 change, %; measured here: OD600 growth;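 optical density of the mix in the first replicate; 0 = DMSO median and -100 = no signal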
Ecoli rRNA inh RFP: further read-out of Ecoli rRNA inh, marked with its call; RFP signal change, %; measured here: RFP humanized mutant strains;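 first replicate; 0 = DMSO median and -100 = no signal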
The depositor's hits bear a star; i = inactive; . = no result given. Only part of the results is shown; count on the stated rates, not on these rows.

SMILES	MLL AF4-AF9 inh	UCH37 inh	Beta apoptosis	FGF22 binding	A1 inh	T cruzi inh	E coli growth	Ecoli rRNA inh	Ecoli rRNA inh OD600	Ecoli rRNA inh RFP
CCOC(=S)SCC(=O)N1CCc2cc(OC)ccc2C1C1C(=O)CCCC1=O (centres undefined)	1.1	-1.3	15	i	0.2	9	0.68	8	11	-1.1
COc1ccc(C(=O)C2C(c3ccc(-c4ccccc4[N+](=O)[O-])o3)NC(=O)NC2(O)C(F)(F)F)cc1 (centres undefined)	4.4	6.3	-4	i	0.4	-3	0.74	-21	-13	16
Cc1cccc(C)c1NC(=O)/C(C#N)=C/c1ccc(-c2ccc(C(=O)O)cc2)o1	-2.5	-15	-17	i	0.2	-4	0.68	-7	-3	-0.7
N#CC1=C(S)N(c2ccccc2)C(c2ccc(-c3ccc(Cl)c(Cl)c3)o2)NC1=O (centres undefined)	-12	.	0	i	-1.0	-6	.	-14	-7	19
COc1ccccc1NC(=O)CSc1nnc(-c2ccco2)n1N	2.0	0.1	-4	i	-0.2	-4	0.61	13	6	1.0
O=C(NCc1ccncc1)C1CCN(S(=O)(=O)Cc2ccccc2)CC1	.	3.2	-2	.	-0.5	6	0.66	.	.	.
COc1ccc(CCC(=O)Nc2ccc(S(=O)(=O)Nc3nccc(C)n3)cc2)cc1	1.3	-1.8	-3	i	0.9	-7	0.69	-1	4	0.6
Cc1ccc(-c2noc(CCC(=O)NCc3ccccc3CN3CCOCC3)n2)cc1	-3.6	1.0	0	i	3.2	.	0.7	0	-3	-0.2
CN(CC(=O)Nc1ccccc1C(F)(F)F)C(=O)Cc1ccc(S(=O)(=O)N2CCOCC2)s1	0.7	-1.3	-5	i	-0.5	-2	0.7	3	4	-0.9
Cc1ccc(CSc2nc3ccccc3c(=O)[nH]2)cc1	1.2	2.6	-5	i	-0.7	2	0.7	0	1	0.1
C=C(Cl)COc1cc(C)cc2oc(=O)cc(CC)c12	.	0.5	2	.	-1.4	9	0.7	.	.	.
O=C(C[n+]1cccc2ccccc21)c1ccc(Br)cc1	3.9	2.6	-1	i	0.5	8	0.68	8	11	2.5
C=CCn1c(SCC(=O)Nc2cc(C)on2)nc2sc(CC)cc2c1=O	.	4.3	4	.	0.2	.	0.79	.	.	.
Cc1nc(N2CCN(Cc3ccc4c(c3)OCO4)CC2)c2oc3ccccc3c2n1	9.7	-5.2	.	i	.	.	0.71	-20	-25	-8.4
CCc1ccc(NC(=O)CCC(=O)Nc2nnc(C(F)(F)F)s2)cc1	-1.1	0.6	-3	i	-1.0	-14	0.65	8	7	1.6
O=C(COc1ccc2ccc(=O)oc2c1)Nc1ccc(CCO)cc1	0.0	3.4	2	i	-0.4	-26	0.7	0	8	0.2
Cc1ccc(/C=C/C(=O)OCC(=O)NC(=O)NCc2ccco2)cc1	0.9	-0.5	-7	i	-0.1	.	0.67	3	5	0.9
Cc1ccc(C(C(=O)NCc2ccccc2)N(C(=O)c2csnn2)c2cccc3ccccc23)o1 (centres undefined)	.	0.9	2	.	2.0	37	0.72	.	.	.
COCCSc1nnc(NC(=O)c2ccc([N+](=O)[O-])cc2)s1	-1.6	.	1	i	-0.6	-8	.	20	13	2.0
O=C(NC(=S)Nn1cnc2c(cnn2-c2ccccc2)c1=O)c1ccc(Cl)cc1	.	4.3	0	.	-1.4	-4	0.71	.	.	.
CC(C)c1ccccc1-n1c(-c2cccnc2)n[nH]c1=S	-2.2	0.8	-5	i	-0.7	-12	0.7	-7	0	2.4
CC(C)COC(=O)c1cc(-c2ccc(/C=N/n3cnnc3)o2)ccc1Cl	.	.	1	.	0.5	23	.	-16	-13	3.9
O=C(CCN1C(=O)/C(=C/c2ccccc2F)SC1=S)N[C@@H](CO)Cc1ccccc1	1.0	5.6	.	i	0.6	-6	0.69	-8	7	-4.9
COc1ccc(NC(=S)NCCc2c(C)[nH]c3ccc(OC)cc23)cc1	19	3.5	-8	i	-0.3	5	0.71	3	0	5.4
COCCNC(=O)c1cccc(OC2CCN(Cc3ccc(Cl)c(F)c3)CC2)c1	0.8	4.1	-4	i	-0.7	9	0.64	-8	-12	-2.6

Next entries:
SMILES	MLL AF4-AF9 inh	UCH37 inh	Beta apoptosis	FGF22 binding	A1 inh	T cruzi inh	E coli growth	Ecoli rRNA inh	Ecoli rRNA inh OD600	Ecoli rRNA inh RFP
COc1ccc(CNC(=O)c2ccc(N3CCCC3=O)cc2)cc1	-0.5	0.8	-5	i	0.7	0	0.65	-5	0	-11
CCCNC(=O)COC(=O)c1[nH]c(C)c(C(=O)OCC)c1C	.	3.5	-2	.	0.0	0	0.73	.	.	.
Cc1ccccc1NC(=O)CC1c2ccccc2CC(C)(C)N1C (centres undefined)	0.5	5.0	17	i	-0.2	2	0.66	7	-3	2.9
O=C(CNC(=O)c1cccs1)OCc1ccc(Cl)cc1	-3.3	8.4	0	i	-0.1	4	0.64	0	4	3.1
O=C(NC1CCC(O)CC1)C1CCN(S(=O)(=O)c2c(Cl)cccc2Cl)CC1 (centres undefined)	2.5	3.8	.	i	.	.	0.7	3	6	-3.0
CC(C)Cn1c(N)c(C(=O)CSc2ccccc2)c(=O)n(C)c1=O	-13	2.5	20	i	-0.7	-19	0.66	8	11	2.4
COc1cc2c(cc1OC)C(C(=O)NC1CC1)C1c3ccccc3CCN1C2=O (centres undefined)	-6.2	0.8	-3	i	-0.1	-12	0.71	8	7	0.4
COc1ccc(OC)c(/C=C/C(=O)Oc2ccc(C(C)=O)cc2)c1	-1.1	-340	.	i	-0.6	-12	0.66	-24*	-12*	3.8*
CCCNc1nc2c(c(=O)[nH]c(=O)n2C)n1CCC(C)C	.	3.9	3	.	0.9	-9	0.7	.	.	.
Cc1ccc(NC(=O)c2ccccc2O)cc1	.	0.1	-7	.	-2.7	-7	0.65	.	.	.
COc1ccccc1C(=O)Cc1ccccc1	2.8	3.7	.	i	.	.	0.68	4	5	3.3
CC(C)Oc1ccc(C2CC(=O)N(c3ccccc3)C2=O)cc1 (centres undefined)	.	1.4	-15	.	1.2	-5	0.73	.	.	.
Oc1cccc(C=Nc2cccc3ccccc23)c1O	1.4	.	73	i	1.0	50	.	-32*	8.0*	-6.3*
CCn1cc(C(=O)NCCCN2CCC(C)CC2)c(=O)c2cc(S(=O)(=O)N(C)C3CCCCC3)ccc21	3.7	5.0	4	i	-0.1	16	0.69	-6	-1	0.5
CCOC(=O)c1cccc(NS(=O)(=O)c2c(C(=O)N3CCCCCC3)c(C)n(C)c2C)c1	5.1	3.3	-3	i	0.4	-3	0.69	-15	-10	4.5
Clc1ccc(-c2nnc(-c3ccccc3)c(N3CCSCC3)n2)cc1	.	1.0	3	.	0.0	7	0.74	.	.	.
Cc1onc(-c2c(Cl)cccc2Cl)c1C(=O)c1ccc(F)cc1	-3.2	5.3	-3	i	-0.5	4	0.67	-16	25	-0.6
O=C(c1ccc(Cl)cc1)N1CCCC(C(=O)N2CCc3ccccc3C2)C1 (centres undefined)	1.0	-0.7	-2	i	1.1	-4	0.71	.	.	.
COc1ccc(C)cc1NC(=O)c1cc(S(=O)(=O)N2CCC3(CC2)OCCO3)ccc1F	2.7	3.1	-1	i	2.2	5	0.69	-6	-1	3.8
CCOC(=O)c1[nH]cnc1C(=O)NC(C)C	.	3.5	-5	.	1.1	-11	0.76	.	.	.
CC(C)CCNC(=O)C(=O)NCC1OCCCN1S(=O)(=O)c1cccs1 (centres undefined)	-1.1	-1.6	0	i	1.0	2	0.7	1	2	-1.5
COc1ccccc1NC(=O)COC(=O)C1CC2CCCC(C1)C2=O (centres undefined)	-2.2	-2.0	-5	i	0.5	.	0.72	2	8	-2.7
O=C(NC(=S)Nc1ccc(Br)cc1)C1CCC1	-0.4	5.1	0	i	0.0	6	0.69	-8	-32	-1.1
O=C(CSc1nnc(-c2cccnc2)n1-c1ccccc1)NCc1ccc2c(c1)OCO2	.	3.4	3	.	-1.0	1	0.72	.	.	.
CCCCCc1nnc(NC(=O)Cn2cnc3ccccc3c2=O)s1	.	-1.7	-10	.	-0.4	-15	0.69	.	.	.

Carrying on:
SMILES	MLL AF4-AF9 inh	UCH37 inh	Beta apoptosis	FGF22 binding	A1 inh	T cruzi inh	E coli growth	Ecoli rRNA inh	Ecoli rRNA inh OD600	Ecoli rRNA inh RFP
CS(=O)(=O)N1CCN(c2ccccc2NC(=O)C(c2ccccc2)c2ccccc2)CC1	.	0.4	-3	.	-0.6	1	0.66	.	.	.
COc1ccc(C(=O)NCCNc2nc3ccc(C)cc3cc2C#N)cc1OC	-3.3	-165	2	i	0.2	7	0.67	4	0	24
O=C(NCC(F)(F)F)c1ccc(S(=O)(=O)Nc2ccccc2N2CCCC2)cc1	2.4	4.6	-5	i	0.3	.	0.67	4	8	8.6
CCc1cc(N2CCOCC2)cc2c1[nH]c1ccccc12	9.7	-240	-7	i	0.0	10	0.7	-9	14	-3.3
Cc1ccc(NC(=O)c2sc3nc[nH]c(=O)c3c2C)c(C)c1	.	-1.9	-1	.	0.1	-9	0.69	.	.	.
CCOc1c2ccc(C(=O)NCc3ccc(OC(F)(F)F)cc3)cc2nn1C	5.5	-33	-9	i	-1.2	-2	0.66	-18	-13	-4.9
COc1ccc(NC(=O)COC(=O)c2ccc(S(=O)(=O)N3CCCC3)cc2)cc1OC	0.5	3.2	-7	i	0.0	.	0.67	.	.	.
Cc1cc(NC(=O)CN2CCN(c3ccccc3O)CC2)no1	.	0.9	-5	.	1.3	-13	0.72	.	.	.
CCOC(=O)c1c(NC(=O)CSc2nnc(-c3cccnc3)o2)sc(C(C)=O)c1C	.	0.7	-3	.	-1.8	-4	0.69	.	.	.
Cc1ccc(SCc2noc(C(=O)NC(C)C)c2C(=O)O)cc1C	-7.9	1.4	0	i	1.2	-9	0.69	-22	-18	-4.9
Cc1ccc(C2=NOC(C)(c3sc(-c4ccc(Cl)cc4)nc3C)C2)cc1 (centres undefined)	2.1	3.6	2	i	-0.7	-3	0.68	3	7	-2.3
O=C(Cc1ccccc1)Nc1ccc(NC(=O)Cc2ccccc2)c(Cl)c1	-1.9	4.0	-7	i	0.0	-16	0.7	15	7	0.3
COc1ccccc1NC(=O)c1sc2ncn(CC(=O)Nc3ccccc3)c(=O)c2c1C	-3.7	-47	-1	i	0.8	1	0.7	7	10	1.5
CC(C)N(C(=O)Cn1c(=O)oc2ccccc21)c1ccccc1	0.1	-0.2	.	i	1.1	-1	0.7	3	13	-1.2
COc1cccc2cc(C(=O)N3CCN(C(=O)c4ccco4)CC3)c(=O)oc12	.	-6.5	0	.	0.7	-3	0.65	.	.	.

Given field by field: part of the list above.
> Cc1cc(NC(=O)CN2CCN(c3ccccc3O)CC2)no1
  MLL AF4-AF9 inh = .; UCH37 inh = 0.9; Beta apoptosis = -5; FGF22 binding = .; A1 inh = 1.3; T cruzi inh = -13; E coli growth = 0.72; Ecoli rRNA inh = .; Ecoli rRNA inh OD600 = .; Ecoli rRNA inh RFP = .
> CCOC(=O)c1c(NC(=O)CSc2nnc(-c3cccnc3)o2)sc(C(C)=O)c1C
  MLL AF4-AF9 inh = .; UCH37 inh = 0.7; Beta apoptosis = -3; FGF22 binding = .; A1 inh = -1.8; T cruzi inh = -4; E coli growth = 0.69; Ecoli rRNA inh = .; Ecoli rRNA inh OD600 = .; Ecoli rRNA inh RFP = .
